# RanGTP-Imp inh: inhibitors of RanGTP-importin-beta interaction, primary screen, biochemical, FRET, CFP-Ran, YFP-importin-beta, homogeneous; inhibition, % (test concentration not listed); AID 2216; cell-free CFP-Ran/YFP-importin-beta FRET ratio; actives 1.1% (n = 300,000);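 active = most replicates above 15%; inconclusive = exactly half above 15%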;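 also: 0% = DMSO wells and 100% = Ran loaded with GDP instead of GTP; wells of about 40 µL received 100 nL stock; the first replicate is given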
# MLL AF4-AF9 inh: blocks AF4 peptide binding to human AF9 | P42568 | AlphaScreen, biotin-AF4 peptide binding to FLAG-AF9 | inhibition, % at 10 µM | actives 0.47% (n = 350,000);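 active = every replicate reaching a set inhibition limit, whatever the replicate mean, cut at about 25% in these data; inconclusive = mean inhibition reaches that limit but some replicates miss it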;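 also: 0% = plate neutral control median and 100% = total signal loss; the record names both 10 and 1 µM as test concentration; the first replicate is given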
# Vif TR-FRET: HIV-1 Vif–A3G interaction blockers – biochemical, TR-FRET, GST-Vif 1-94, biotin-A3G peptide, dose response retest, primary screen (AID 1117319) | actives 0.57% (n = 260,000) | TR-FRET GST-Vif / biotin-A3G peptide binding; higher % means a stronger effect; test concentration not given here; strong numbers were not always called active | inhibition, %; hits with a dose series show IC50 in µM;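 active = above the screen mean plus three standard deviations and confirmed in dose response; inconclusive = results disagree or hit not tested in dose response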;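 also: Vif residues 1-94 fused to GST binding biotinylated APOBEC3G peptide 110-148; 0% = full assay without inhibitor and 100% = GST in place of GST-Vif; retest series ran down from 100 µM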
# LANA-H2A inh: blocks KSHV LANA binding to histone H2A/H2B | actives 0.6% (n = 320,000) | Q9QR71 | cell-free LANA-H2A/H2B peptide, fluorescence polarization | inhibition, % (no concentration beside the values); in the data active = inhibition mostly above about 10%, no sharp cut-off; inactive = mostly below about 6.7%;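 also: stock transfer was 7.5 nL into about 10 µL; 0% = median of vehicle wells and 100% = median of positive control wells; one replicate is shown; the record names a cut of 25% in any replicate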
# Target sequence (Q9QR71 whole entry, looked up): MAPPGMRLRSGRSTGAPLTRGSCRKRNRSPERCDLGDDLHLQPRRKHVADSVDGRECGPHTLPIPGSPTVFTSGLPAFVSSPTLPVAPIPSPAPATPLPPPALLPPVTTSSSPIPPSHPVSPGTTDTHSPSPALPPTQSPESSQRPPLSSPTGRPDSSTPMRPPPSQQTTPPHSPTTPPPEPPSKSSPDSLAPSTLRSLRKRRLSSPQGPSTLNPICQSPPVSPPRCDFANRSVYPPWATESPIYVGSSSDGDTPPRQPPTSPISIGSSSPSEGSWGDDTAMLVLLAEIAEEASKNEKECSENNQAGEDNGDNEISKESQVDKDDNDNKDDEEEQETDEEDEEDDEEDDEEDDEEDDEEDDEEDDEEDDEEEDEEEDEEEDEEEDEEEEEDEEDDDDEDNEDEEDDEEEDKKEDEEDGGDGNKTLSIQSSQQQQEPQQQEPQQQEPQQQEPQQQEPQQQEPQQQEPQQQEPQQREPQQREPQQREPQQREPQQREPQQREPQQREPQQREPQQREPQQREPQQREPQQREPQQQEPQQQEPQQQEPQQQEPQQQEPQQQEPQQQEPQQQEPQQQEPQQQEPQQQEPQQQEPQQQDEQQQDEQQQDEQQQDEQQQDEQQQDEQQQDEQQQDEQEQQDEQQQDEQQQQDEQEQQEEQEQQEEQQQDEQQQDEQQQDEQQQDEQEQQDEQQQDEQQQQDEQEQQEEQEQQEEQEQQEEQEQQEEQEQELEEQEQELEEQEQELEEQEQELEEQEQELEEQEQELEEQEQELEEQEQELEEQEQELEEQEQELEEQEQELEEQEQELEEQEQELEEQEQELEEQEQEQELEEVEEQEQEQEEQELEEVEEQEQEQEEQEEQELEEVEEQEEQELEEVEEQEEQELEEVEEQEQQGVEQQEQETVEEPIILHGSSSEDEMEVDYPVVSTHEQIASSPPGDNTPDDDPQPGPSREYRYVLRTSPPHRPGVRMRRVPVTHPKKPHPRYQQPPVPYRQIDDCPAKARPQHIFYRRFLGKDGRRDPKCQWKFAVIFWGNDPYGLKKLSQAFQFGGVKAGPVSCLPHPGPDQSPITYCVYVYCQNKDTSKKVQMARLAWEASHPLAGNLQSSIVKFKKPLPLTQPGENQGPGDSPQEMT
# A1 inh: inhibitors of the anti-apoptotic protein A1, read as caspase activation; caspase activation, % (concentration not given with the values); MEF A1-2A-BIM cells, Caspase-Glo 3/7 luminescence, 3 h; percent of clofoctol response, vehicle zero; actives 0.066% (n = 330,000);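 active = over half of replicate activation scores above 10%, or exactly half above 10 with the replicate mean above 10; inconclusive = replicate mean below 10 yet half the replicates above 10; inactive = over half of replicates below 10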;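 also: wells of about 30 µL received 50 nL stock; many hits fall short of the cut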
# Beta apoptosis: beta cell apoptosis inhibition; actives 0.8% (n = 300,000); protection from apoptosis, % (test concentration not listed); INS-1E cytokine-induced death, ATP luminescence, 48 h; percent of positive-control rescue, neutral wells zero;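 active = all replicates at 75% or more, or half of them and the mean; inconclusive = half reach 75% but not the mean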;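 also: 0% = cytokine-treated negative control wells and 100% = positive control rescue; higher means more ATP so stronger rescue from cytokine killing; wells of about 40 µL received 100 nL stock; the first replicate is given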
# T cruzi inh: blocks replication of Trypanosoma cruzi. T. cruzi beta-gal in NIH3T3, luminescence, 90 h. inhibition, % (concentration not given with the values). actives 1.4% (n = 300,000);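 active = mean inhibition across valid replicates above about 55%, limit read from the data; inconclusive = mean below that limit but half or more replicates reach it; inactive = mean below it, under half of replicates reach it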;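 also: signal also drops with host cell toxicity which is not excluded here; 0% = plate median of DMSO wells and 100% = zero luminescence signal; higher percent means less beta-gal luminescence so fewer parasites; stock transfer was 50 nL into about 50 µL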
# Calb FLC: C. albicans growth modulation with fluconazole. C. albicans CaCi-2 (fluconazole-resistant clinical isolate) + fluconazole, Alamar Blue growth, 48 h. growth inhibition, % (no concentration beside the values). actives 0.57% (n = 300,000). AID 1979;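 active = most replicates above 75%; inconclusive = exactly half above 75%; inactive = most below 75%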;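 also: all wells also contain fluconazole at 8 µg/ml as a sub-toxic cotreatment; 0% = median of DMSO wells and 100% = median of geldanamycin control wells; wells of about 8 µL received 7.5 nL stock; the first replicate is given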
# Active calls of the source: *; i = inactive; u = inconclusive; x = not tested or not shown.
SMILES,RanGTP-Imp inh,MLL AF4-AF9 inh,Vif TR-FRET,LANA-H2A inh,A1 inh,Beta apoptosis,T cruzi inh,Calb FLC
COCCNS(=O)(=O)c1ccc(C2CNC(=O)C2)cc1 (stereo not drawn),1.6,0.3,1%,-1.8,0.6,-4,-5,2
CC1=C(C(=O)Nc2ccccc2)C(c2ccc(Cl)cc2)n2c(s/c(=C/c3cccc(OCC(=O)O)c3)c2=O)=N1 (stereo not drawn),1.4,7.1,-5%,-0.3,-0.1,-8,-16,-4
Cc1ccc(S(=O)(=O)N2CCN(C(=O)Cc3ccccc3)CC2)cc1,-1.0,x,1%,1.5,-0.3,x,-6,11
CCCCn1c(N)c(N(CCOC)C(=O)C2CCN(S(=O)(=O)c3ccccc3)CC2)c(=O)[nH]c1=O,-0.1,-1.1,2%,-1.0,0.7,-2,-5,-2
COCc1ccc(C(=O)NC2CC(C)(C)Cc3c2cnn3-c2ccc(OC)cc2)o1 (stereo not drawn),1.6,1.1,x,6.2,-0.5,0,-15,-4
OCC1(CCCc2ccccc2)CCN(C2CCC2)CC1,3.4,0.1,x,-6.7,-0.1,x,-5,-7
CC(C)(C)OC(=O)N[C@@H](Cc1ccccc1)c1nnc(SCC(=O)O)o1,0.0,x,9%,1.4,1.7,-1,-15,3
CCCOc1ccc(CNC(=O)C2CCN(c3nnc(N4CCCC4=O)s3)CC2)cc1,1.3,-1.9,x,14,0.2,3,-5,5
CC(C)(C)N=Cc1cc(-c2ccccc2)sc1O,6.7,x,31%,-5.4,-1.9,5,1,5
O=C1CCN(Cc2ccccc2)S(=O)(=O)c2c(F)cc(F)cc21,x,-2.9,x,4.8,1.0,-7,x,x
N#Cc1ccc(NCC(=O)Nc2ccc(S(=O)(=O)N3CCCCC3)cc2)cc1,x,2.8,3%,-3.4,0.9,0,x,x
C=CCn1c(-c2ccccc2)nc(=S)c2c1CCCC2,3.1,2.5,18%,-2.5,0.6,0,-10,-1
Cc1cc2c(ncn2Cc2ccccc2)c(N)c1C,-5.4,6.0,1%,0.8,0.4,-3,-11,-1
CCOC(=O)CCCn1ccc2cc(S(=O)(=O)N3CCCC3)ccc21,-0.9,2.2,x,2.0,0.2,2,-9,3
COCCN(C(=S)Nc1cccc(Cl)c1C)C(C)c1ccco1 (stereo not drawn),3.2,2.7,12%,2.6,0.3,-5,-6,-8
COc1cc(C(=O)Nc2nnc(S(=O)(=O)N3CCCCCC3)s2)cc(OC)c1OC,-1.1,-0.3,x,-1.4,0.0,-5,-10,-7
Cc1ccc(-c2cc(C(=O)N3CC(C)CC(C)C3)c3ccccc3n2)o1 (stereo not drawn),0.4,1.8,x,3.8,0.1,-5,14,-7
Cc1ccc(N(C(=O)C2CCCC2)C2C=CS(=O)(=O)C2)cc1C (stereo not drawn),-2.3,x,0%,13,0.0,-6,-11,-4
COCCn1cnc2c1c(=O)n(Cc1cc(C(C)=O)ccc1OC)c(=O)n2Cc1ccccc1,4.5,-1.4,x,-2.1,-0.1,-1,16,7
Cc1ccc2occ(/C=N/NC(=O)c3ccc(Cl)cc3)c(=O)c2c1,0.2,3.7,x,-3.2,-0.8,-2,3,-15
CC(=O)N1CCOc2ccc(S(=O)(=O)NCc3ccc(F)cc3)cc21,0.9,1.1,x,-2.0,0.6,x,-5,1
O=C(c1cccn2c(=O)c3ccccc3nc12)N1CCN(c2ccccn2)CC1,2.6,x,25%,-3.9,0.2,5,6,-4
Cc1nc(NC(=S)NC(=O)COc2ccc(Cl)cc2)ccc1Br,2.2,-3.0,x,-0.7,1.3,-5,-7,-16
Cc1ccc(CNC(=O)C(c2ccccc2)c2ccccc2)cc1,-5.4,-2.0,-1%,-0.5,-0.2,-5,17,-14
COc1ccccc1CNC(=O)CCC(=O)Nc1nnc(C(C)C)s1,1.8,x,-7%,20*,x,1,-5,-19
# The results go on:
SMILES,RanGTP-Imp inh,MLL AF4-AF9 inh,Vif TR-FRET,LANA-H2A inh,A1 inh,Beta apoptosis,T cruzi inh,Calb FLC
CCOC(=O)N1CCC(NC(=O)c2ccc3c(Cl)c4c(nc3c2)CCCC4)CC1,x,-13,-7%,0.6,-0.1,10,x,x
O=C(C/C=N\OCc1ccc([N+](=O)[O-])cc1)Nc1ccc(Br)cc1,4.6,-1.1,-11%,-3.1,-0.1,-2,-3,-19
Cc1cc(C(=O)N/N=C/c2cccc(Cl)c2Cl)no1,5.2,x,-12%,-9.9,-1.7,7,-4,12
CC(C)(C)OC(=O)N1CCC(Cc2cc(-c3cccc(Br)c3)no2)(C(=O)O)CC1,-0.8,3.6,x,5.5,0.3,-1,1,1
CC(=O)N1N=C(c2ccc(Cl)cc2)OC1c1ccc(C(C)C)cc1 (stereo not drawn),-0.8,x,3%,-0.5,-0.5,-7,-9,6
O=C(Cn1cnc2ccccc21)NC(c1ccccc1)c1ccccc1,u,x,-10%,-1.5,0.3,-13,-21,-7
O=C1CC/C=C\C[C@@H](CC(=O)N(CCO)Cc2ccccc2)C(=O)NCCO1,x,1.4,x,7.5,-0.1,1,x,x
CCc1ccc2nc(N3CCN(C)CC3)c(C#N)cc2c1,1.0,x,34µM*,4.5,0.5,-1,20,10
Cc1ccc(NC(=O)Cn2cc(S(=O)(=O)c3ccc(F)cc3)c(=O)c3cc(F)ccc32)cc1,-2.5,-0.2,-25%,2.8,0.6,-6,17,-6
CC(=O)N1CC(C(=O)Nc2ccc3c(c2)OCO3)Oc2ccccc21 (stereo not drawn),x,-2.8,9%,-0.2,0.3,1,x,x
O=C(CSc1nncc(=O)[nH]1)NCc1ccccc1,u,-2.1,x,4.0,0.1,-3,-18,-8
COc1ccccc1NC(=O)Cn1cnc2c(nc3n2CCCCC3)c1=O,-0.8,2.1,x,0.6,-0.4,1,-7,-3
CC(C)OP(=O)(OC(C)C)C1(NS(=O)(=O)c2ccc(Cl)cc2)C=C(Cl)C(=O)C(Cl)=C1,1.7,-10,x,1.0,-0.4,3,-10,x
CCc1ccccc1NC(=O)c1ccc(NS(C)(=O)=O)cc1,2.8,-0.2,12%,2.0,-0.2,-4,-12,10
C=CCNC(=O)c1ccccc1NC(=O)c1ccccc1C,1.8,x,-9%,-1.0,0.1,5,-11,0
Cc1cccc(NC(=O)CN2C(=O)N/C(=C/c3ccc(-c4cccc(C(=O)O)c4C)o3)C2=O)c1,u,-1.9,3%,-2.0,1.3,3,6,4
Cc1ccc(S(=O)(=O)CC(=O)Nc2nc3ccc(S(N)(=O)=O)cc3s2)cc1,-1.7,-2.4,x,-1.6,0.8,-5,-24,27
O=[N+]([O-])c1cccc(-c2nc(Oc3ccc(Cl)cc3)c3ccccc3n2)c1,2.7,x,-8%,0.2,-0.5,-3,-19,0
O=C(Cn1cc(C(F)(F)F)ccc1=O)NC(c1ccccc1)c1ccccc1,3.3,-1.1,10%,-1.4,0.6,1,-12,-12
Cc1cccc(CSc2nnc(NC(=O)c3ccco3)s2)c1,0.2,x,-3%,-5.7,0.7,-7,-4,3
O=c1cc(-c2cc3ccccc3o2)c2cc(O)ccc2o1,-6.4,x,u,3.7,-0.8,-1,-18,-3
CC(C)Sc1nc2ccccc2c(=O)[nH]1,0.9,x,17%,-2.2,0.0,-6,3,10
COc1ccccc1CN1CCNC(=O)C1CC(=O)NC1Cc2ccccc2C1 (stereo not drawn),1.4,-0.2,1%,1.8,-0.9,-2,0,-26
Cc1cc(NC(=O)c2cc3nc(C4CC4)cc(C(F)(F)F)n3n2)no1,-0.1,x,0%,1.4,-0.1,2,-8,0
CC(C)(C)c1ccc(C(CC(=O)O)NC(=O)CCCc2ccccc2)cc1 (stereo not drawn),0.8,-23,-5%,3.3,0.2,-4,-3,0
# Next structures.
SMILES,RanGTP-Imp inh,MLL AF4-AF9 inh,Vif TR-FRET,LANA-H2A inh,A1 inh,Beta apoptosis,T cruzi inh,Calb FLC
CC(C)OC(=O)CSc1n[nH]c(-c2cccnc2)n1,2.4,x,27%,-0.2,-1.4,-2,-5,9
COc1cc(OC)c(OC)cc1CCC(C)NC(=O)Cc1ccccc1 (stereo not drawn),7.3,1.2,8%,-1.0,-0.5,-6,1,-4
Cc1ccc(-n2nnnc2SCC(=O)c2c(N)n(C3CC3)c(=O)[nH]c2=O)cc1C,x,-5.5,28%,9.1,-0.7,8,x,x
COc1ccc(NCC(=O)N/N=C/C(C)c2ccccc2)cc1 (stereo not drawn),-12,0.4,7%,1.1,-0.1,-3,5,-24
COc1cc(C)nc2nc(SCc3ccccc3)nn12,3.0,x,-4%,i,0.5,x,0,6
O=C(CCS(=O)(=O)c1ccc(F)cc1)N1CCOCC1,-1.8,1.3,x,1.1,0.2,-3,4,0
Cc1ccccc1OCC(=O)Nc1ccc2c(c1)n(C)c(=O)n2C,-1.0,5.0,4%,-0.6,-0.7,7,-10,1
OC(COCc1cccs1)CN1CCN(c2ccccn2)CC1 (stereo not drawn),0.6,x,3%,0.5,-0.4,-2,-7,-1
O=C(Nc1ccccn1)c1sc2cc([N+](=O)[O-])ccc2c1Cl,-4.7,0.8,-23%,-0.6,-3.1,13,18,0
Cc1cc(C)cc(NC(=O)CSc2nnc(C3CC3)n2CC2CCCO2)c1 (stereo not drawn),2.9,-2.2,-5%,0.5,0.0,5,1,-20
CCCCC(=O)OCC(=O)Nc1ccc(SC(F)F)cc1,u,-0.8,-11%,4.3,0.7,-3,x,-18
COC(=O)c1ccc(NC(=S)N2CCN(Cc3ccccc3OC)CC2)cc1,-0.1,u,x,-4.0,0.6,6,-21,1
O=C(CSc1nc2nn(-c3ccccc3)c(=O)c-2c2n1CCCCC2)c1ccc(OC(F)F)cc1,x,1.4,x,-5.5,-0.8,8,x,x
COCCn1c(SCC(N)=O)nc2c(c1=O)SC(C)C2 (stereo not drawn),-1.0,-4.9,1%,-3.6,0.3,2,0,6
Cc1cc(Nc2ccc(Br)c(C)c2)n2nc(C)nc2n1,5.3,-2.1,3%,1.9,-0.6,-3,1,-1
COc1ccc(C(=O)Nn2c(SCC(=O)c3ccccc3)nc3ccccc3c2=O)cc1,-0.1,x,-9%,0.6,-0.1,10,9,-31
COc1ccc(N(C)S(=O)(=O)c2cccc(C(=O)Nc3ccc(N4CCOCC4)cc3)c2)cc1,x,10,0%,-1.3,-1.0,4,x,x
COCCn1c(=NC(=O)c2ccc(S(=O)(=O)N3CCc4ccccc4C3)cc2)sc2cc(OC)ccc21,u,x,-4%,2.7,0.3,-2,-19,9
CC(=O)Nc1ccc(OCC(O)CN2CCN(c3cc(Cl)ccc3C)CC2)cc1 (stereo not drawn),2.8,x,8%,6.7,0.1,x,25,-37
O=C1CC(C(=O)Nc2ccc(Br)cc2)S/C(=N\N=C\c2ccco2)N1 (stereo not drawn),2.2,-16,15%,3.0,-0.8,x,-14,3
Cc1ccc(Oc2cc(NN3CCCCC3)c([N+](=O)[O-])cc2[N+](=O)[O-])c(Cl)c1,-8.0,-0.8,x,0.3,0.9,3,-27,0
Cc1nn(C)cc1C1C2=C(CC(C)(C)CC2=O)OC2=C1C(=O)CC(C)(C)C2,-3.8,x,20%,0.5,-0.3,-2,0,0
